# Source: PubChem
# PK Bst – Pyruvate Kinase | partly purified Bacillus stearothermophilus pyruvate kinase, luminescence ATP production; ribose 5-phosphate activator present at AC10 | Potency, µM | hit rate 1.2% among 51,000 | AID 361, 2006; in the data active means potency below about 11 µM; inconclusive means mostly about 12 µM to 25 µM; inactive means weaker than that;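 the screen sought inhibitors and activators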;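 further: potency means the concentration at half of the fitted maximal effect; scaled between full activation by ribose 5 phosphate and full inhibition by luteolin; about four in five hits inhibit and the cells do not say which; series up to 57 µM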
# YjeE inh – qHTS Assay for Inhibitors of YjeE | tRNA threonylcarbamoyladenosine biosynthesis protein TsaE (Escherichia coli (strain … | purified YjeE, fluorescence polarisation of a bound ADP probe | Potency, µM | hit rate 0.05% among 71,000 | AID 605, 2007; active = well fitted falling curve; inconclusive = weaker or top-dose-only fall, or a rising curve; inactive = flat or poorly fitted curve;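 further: top concentration of the series not given in the record; excess ADP was the control for the full effect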
#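 Fluorescence polarization of a BODIPY Texas Red–ADP probe (2 uM) bound to purified YjeE (10 uM) was read after 15 min room-temperature incubation with compounds. Loss of polarization marks inhibitors; ADP serves as titrated control.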
# The depositor's hits bear a star; i = inactive; / = no result given. Only part of the results is shown; count on the stated rates, not on these rows.
# A first look:
SMILES,PK Bst,YjeE inh
CCCCNC(=O)Nc1cnn(CC)c1C(N)=O,>57,i
Cc1cnc(C(=O)OCC(=O)Nc2ccc(Cl)cc2)cn1,>57,i
Cc1cccc2cc(C#N)c(NCCNS(=O)(=O)c3ccc4c(c3)OCCO4)nc12,>57,i

# The list itself, previewed entries included:
SMILES,PK Bst,YjeE inh
CCCCNC(=O)Nc1cnn(CC)c1C(N)=O,>57,i
Cc1cnc(C(=O)OCC(=O)Nc2ccc(Cl)cc2)cn1,>57,i
Cc1cccc2cc(C#N)c(NCCNS(=O)(=O)c3ccc4c(c3)OCCO4)nc12,>57,i
COc1ccc(C2C3=C(CCCC3=O)Nc3nc4ccccc4n32)cc1OC (configuration not stated),>57,i
CN(C)c1nc(Oc2ccc(/C=N/O)cc2)nc(N(C)C)n1,/,i
Cc1ccc(C)c(N(C(=O)Cn2nnc(-c3cccs3)n2)C(C(=O)NC2CC2)c2ccc(C)o2)c1 (configuration not stated),>57,i
CC1=C(C(=O)OC2CCCCC2)C(c2ccco2)n2ncnc2N1 (configuration not stated),/,i
Cn1c(=O)oc2cc(S(=O)(=O)Nc3cccc(C(=O)O)c3)ccc21,>57,i
Cn1c(-c2ccc(C(C)(C)C)cc2)n[nH]c1=S,/,i
COC(=O)C1CCCN1C(C(=O)NC1CCCCC1)c1ccc(Cl)cc1 (configuration not stated),/,i
COc1ccc(/C=N/c2nc3ccccc3n2C)cc1OC,i,i
N#Cc1nc(-c2ccccc2Cl)oc1N1CCOCC1,>57,i
Cc1cc(=O)oc2cc(OCC(=O)N3CCCC(C)C3)ccc12 (configuration not stated),>57,i
O=C(CSc1nccn1-c1cccc(Cl)c1)NC1CCCC1,>57,i
O=C(NCc1ccccn1)c1ccc(=O)oc1,>11,/
CCN(CC)CCN1C(=O)C(=O)/C(=C(/O)c2c(C)[nH]c(C(=O)OC)c2C)C1c1cccnc1 (configuration not stated),>57,i
Fc1ccc(-c2nnc3ccc(N4CCCC4)nn23)cc1,/,i
COc1ccc(Cl)cc1C(=O)Nc1ccc(NC(=O)c2ccco2)cc1,/,i
Cc1[nH]nc(N=CC2=C(O)CC(c3ccco3)CC2=O)c1-c1ccccc1 (configuration not stated),>57,i
COCC(=O)N(Cc1cc2ccccc2[nH]c1=O)c1ccc(OC)cc1,/,i
CCN1CCN(C(=O)c2ccc3c(=O)n(C4CCCC4)c(=S)[nH]c3c2)CC1,/,i
O=C(NCc1cccs1)C1CCN(c2ccc(S(=O)(=O)N3CCOCC3)cc2Cl)CC1,>57,i
COc1ccc(OC)c(C2C=C(c3ccc(C)c(C)c3)Nc3nnnn32)c1 (configuration not stated),>57,i
Cn1c(=O)c2c(nc(CN3CCc4ccccc4C3)n2Cc2ccc(Cl)cc2)n(C)c1=O,>57,i
CC(=O)Nc1ccc(S(=O)(=O)N[C@H](C(=O)O)C(C)C)cc1,>57,i
COc1ccc2c(c1)CCc1c(C(=O)NC3CCCCC3)noc1-2,/,i
COc1[nH]c2ccc(F)cc2c1C(=O)OCC1CCN(CCNS(C)(=O)=O)CC1,/,i
COCCn1c(=O)c(-c2cccc(C#N)c2)nc2cnc(Nc3ccccc3)nc21,/,i
CCOC(=O)C1C(=O)CC(=O)CC1CC(C)SCC (configuration not stated),>57,i
O=C(Nc1ccccc1)c1ccc(NCC2CCCO2)c(S(=O)(=O)N2CCOCC2)c1 (configuration not stated),>57,i
Nc1ccn([C@H]2CS[C@@H](CO)O2)c(=O)n1,/,i
Cn1ncc2c1ncn1nc(COc3ccc4ccccc4c3)nc21,>57,i
COc1ccc(C2C3=C(CC(C)(C)CC3=O)Oc3ncn(CCO)c(=N)c32)cc1OC (configuration not stated),>57,i
CNc1ncnc2ccc(-c3ccccc3C#N)cc12,/,i
O=C(CCCC(=O)OCC(=O)NC1CCCC1)Nc1ccccn1,>57,i
COc1ccc(/C(O)=C2\C(=O)C(=O)N(CCN(C)C)C2c2cccc(OC)c2OC)cc1Cl (configuration not stated),>26,/
CCCCN(C)C(=O)c1oc2ccc(S(=O)(=O)N3CCCCCC3)cc2c1C,>57,i
COCCn1nnnc1CN1CCN(c2cccc(C(F)(F)F)c2)CC1,>57,i
COc1ccc2c(c1)CN([C@H](C)[C@@H]1CC[C@@H]3[C@H]4CC[C@H]5C[C@@H](O)CC[C@@]5(C)[C@H]4CC[C@]31C)CO2,/,i
COc1ccccc1NC(=O)Nc1nc(-c2cccnc2)nc2ccccc12,/,i
COc1ccc2cc3c(N)nn(C(=O)Cc4ccccc4OC)c3nc2c1,/,i
Cc1onc(-c2ccccc2Cl)c1C(=O)NCc1ccc(N2CCCC2=O)cc1,>57,i
COC(=O)Cn1c(C)nc2c(sc3nc(C)cc(C)c32)c1=O,i,i
O=C(CSc1ncn[nH]1)c1ccco1,>57,i
Cc1ccc(-c2nnn(Cc3nc4ccccc4s3)n2)cc1,>57,i
CC(C)(C)OC(=O)NCC(=O)N1CCC(C(=O)O)CC1,>57,i
CCN(CCCNC(=O)CC1Oc2ccc(C)cc2NC1=O)Cc1ccccc1 (configuration not stated),/,i
Cc1ccc(-c2ccc(=O)n(CC(=O)NCCN(C)C)n2)cc1,>57,i
O=C(NCCO)c1cccc2c1C(=O)c1ccccc1-2,i,/
CCCCOC(=O)Nc1ccc(C(=O)OC)cc1,/,i
COc1cc(C(=O)NCc2ccc3c(c2)OCO3)ccc1OCc1c(C)noc1C,>57,i
C=C(C)c1cccc(C(C)(C)NC(=O)N2CCN(CC(N)=O)CC2)c1,>57,i
Cc1cc(C)c2nc(NC3=NCN(CCN4CCOCC4)CN3)nc(C)c2c1,>57,i
O=C(CNS(=O)(=O)c1cccs1)N1CCc2ccccc2C1,>57,i
NC(N)=NC(N)=Nc1ccccc1 (tested in a mixture with another compound),/,i
O=S(CCc1ccncc1)Cc1ccccc1 (configuration not stated),>11,/
CCn1c2ccccc2c2nnc(SCC(=O)Nc3ccc4c(c3)OCO4)nc21,>57,i
CCN1C2=NCCCN2c2ccccc21,>57,i
O=C(CCc1ccccc1)Nc1nc2n(n1)C(c1ccc(Cl)cc1)CC(=O)N2 (configuration not stated),>57,i
CCOc1ccc(N2CC(C(=O)NCCc3ccc(OC)c(OC)c3)CC2=O)cc1 (configuration not stated),>57,i

# Other entries follow:
SMILES,PK Bst,YjeE inh
CCOCc1cc(C2NC(=O)NC(C)=C2C(=O)OCC)ccc1OC (configuration not stated),>57,i
COc1cc(C(=O)NCC(c2cccnc2)N2CCN(c3ccccc3)CC2)cc(OC)c1OC (configuration not stated),/,i
COc1cccc(C(=O)N(CN2CCCC2=O)c2cc(C)on2)c1,>57,i
c1ccc(C[C@@H](Nc2cccnc2)c2ccccc2)cc1,/,i
CCCn1c(NCc2ccco2)nc2ccccc21,>57,i
COc1ccc(C(=O)CSc2nnc(C(CO)NC(=O)c3ccc(OC)cc3)n2C)cc1 (configuration not stated),>57,i
CCOC(=O)c1cnc2sc3c(n2c1=O)CCCC3,/,i
Cn1c(-c2nonc2NC(=O)c2ccc(C(C)(C)C)cc2)nc2ccccc21,>57,i
Cc1[nH]nc2c1C(c1cccnc1)N(c1ccc(Br)cc1)C2=O (configuration not stated),>57,i
Nc1nc(SCc2ccccc2)[nH]c(=O)c1-c1ccccc1,>57,i
COc1ccccc1OCC(O)Cn1c(=N)n(Cc2ccccc2)c2ccccc21 (configuration not stated),>57,i
O=c1cc(N2CCN(c3ccccc3F)CC2)[nH]c(=O)n1-c1ccc(Br)cc1,/,i
CC1CCN(S(=O)(=O)c2ccc3[nH]c(=O)c(=O)[nH]c3c2)CC1,>57,i
CC1CC(C)CN(c2nc3c(c(=O)n(C)c(=O)n3C)n2C)C1 (configuration not stated),>57,i
O=S(=O)(c1ccccc1)N1CCN(Cc2cccc(Cl)c2)CC1,>57,i
O=C(Nc1ccccc1C(=O)N1CCN(c2ccccc2)CC1)c1ccco1,>57,i
O=C(CSc1nnc(-c2ccccn2)n1Cc1ccccc1)Nc1ccc2c(c1)OCO2,>57,i
O=C(CN(c1ccc2c(c1)OCCO2)S(=O)(=O)c1ccccc1)Nc1ccc2c(c1)OCO2,>57,i
CCn1c(SCC(=O)Nc2ccc3c(c2)OCO3)nc2c1c(=O)n(C)c(=O)n2C,>57,i
Cc1cccc(C)c1OCC(=O)Nn1c(C)nc2ccccc2c1=O,>57,i
Cc1nn(Cc2ccccc2)c(C)c1NC(=O)c1cc(-c2ccc3c(c2)OCO3)on1,>57,i
Cc1cc(C)n2nc(SC3CCCCN(C(=O)c4ccc(F)cc4)C3=O)nc2n1 (configuration not stated),>57,i
Cn1cccc1C(=O)N1CCC2(CC1)CN(C(c1ccccc1)c1ccccc1)C2,/,i
C=C(C)Cn1c(SCC)nc2ccccc2c1=O,>57,i
CC(C)CCNC(=O)C1CCCN(S(=O)(=O)c2ccc(F)cc2)C1 (configuration not stated),>57,i
O=C(c1cccnc1)N1CCN(S(=O)(=O)c2ccc(S(=O)(=O)N3CCCC3)cc2)CC1,>57,i
COc1ccc(Cl)cc1S(=O)(=O)N1CCN(c2ccc(F)cc2)CC1,/,i
O=C1CC(=O)N(Cc2ccco2)C(=O)N1,>57,i
CCNc1ncc2nc(-c3ccc(F)cc3)c(=O)n(C)c2n1,/,i
O=C(NCc1cccs1)C1CC(=O)N(c2ccc(F)cc2)C1 (configuration not stated),>57,i
COc1ccccc1/C=c1\sc2nc(-c3cccs3)nn2c1=O,>57,i
COC(=O)[C@@]1(Cc2ccc(F)cc2)[C@H]2c3cc(C(=O)N4CCCC4)n(CC4CC4)c3C[C@H]2CN1C(=O)c1ccccc1,/,i
COc1ccc(N2CCN(C(=O)c3ccc(OCC4CCCO4)cc3)CC2)cc1 (configuration not stated),>57,i
CN(C)c1ncc2nc(-c3cccs3)c(=O)n(CCc3ccccc3)c2n1,/,i
c1ccc(-c2nc(NCCCN3CCOCC3)c3ccccc3n2)cc1,>11,i
COc1ccc(S(=O)(=O)N2CCCCC2)cc1C(C)C,>57,i

# Arranged by SMILES length (lowest first): some entries from above
SMILES,PK Bst,YjeE inh
COc1ccccc1/C=c1\sc2nc(-c3cccs3)nn2c1=O,>57,i
c1ccc(-c2nc(NCCCN3CCOCC3)c3ccccc3n2)cc1,>11,i
CC(C)CCNC(=O)C1CCCN(S(=O)(=O)c2ccc(F)cc2)C1 (configuration not stated),>57,i
COc1ccc(Cl)cc1S(=O)(=O)N1CCN(c2ccc(F)cc2)CC1,/,i
COc1ccc(N2CCN(C(=O)c3ccc(OCC4CCCO4)cc3)CC2)cc1 (configuration not stated),>57,i
O=C(c1cccnc1)N1CCN(S(=O)(=O)c2ccc(S(=O)(=O)N3CCCC3)cc2)CC1,>57,i
COC(=O)[C@@]1(Cc2ccc(F)cc2)[C@H]2c3cc(C(=O)N4CCCC4)n(CC4CC4)c3C[C@H]2CN1C(=O)c1ccccc1,/,i

# (listing goes on)
SMILES,PK Bst,YjeE inh
CCOc1ccc(N(Cc2cc3cc(OC)ccc3[nH]c2=O)C(=O)C2CCCO2)cc1 (configuration not stated),>57,i
O=C(N[C@H](CO)[C@H](O)c1ccc([N+](=O)[O-])cc1)C(Cl)Cl,/,i
COCCn1c(C(=O)N2CCCC2)cc2c1C[C@H]1CN(C(=O)c3ccccc3)[C@@](Cc3ccc(OC)cc3)(C(=O)OC)[C@@H]21,/,i
COc1cc(NS(C)(=O)=O)c(OC)cc1NC(=O)c1ccccc1,>57,i
O=C(NCCN1CCOCC1)NC1(C(F)(F)F)Oc2ccccc2O1,>57,i
COc1ccc(N(CC(=O)NCCSC(C)(C)C)S(C)(=O)=O)c(OC)c1,/,i
Cc1nc(NC2CCCCC2)c2nc(-c3ccccc3)n(C(C)CN(C)C)c2n1 (configuration not stated),/,i
CCCCn1c(SCC(=O)NCC2CCCO2)nc2ccc(N3CCOCC3)cc2c1=O (configuration not stated),>57,i
COC(=O)CC1C(=O)NCCN1C(=O)c1ccccc1 (configuration not stated),>57,i
COc1ccc(N2CCN(Cc3nc4ccccc4c(=O)[nH]3)CC2)cc1,>57,i
COc1ccc(C2/C(=C(\O)c3ccc4c(c3)OCCO4)C(=O)C(=O)N2CCCN(C)C)cc1 (configuration not stated),>11,/
COc1ccc(CNc2ccnc(-c3cccc(NS(C)(=O)=O)c3)n2)c(OC)c1,/,i

# The final two compounds of the section before lead into the next:
SMILES,PK Bst,YjeE inh
COc1ccc(C2/C(=C(\O)c3ccc4c(c3)OCCO4)C(=O)C(=O)N2CCCN(C)C)cc1 (configuration not stated),>11,/
COc1ccc(CNc2ccnc(-c3cccc(NS(C)(=O)=O)c3)n2)c(OC)c1,/,i
COc1cccc(CNC(=O)C2CCCN(S(=O)(=O)c3cnc[nH]3)C2)c1 (configuration not stated),/,i
CCOC(=O)c1sc(NC(=O)c2ccco2)nc1-c1ccccc1,/,i
CCOC(=O)c1oc2cc(O)c(CC)cc2c(=O)c1-c1ccc2c(c1)OCCO2,/,i
O=C(Nc1ccon1)c1sc2cc(F)ccc2c1Cl,>57,i
CCOC(=O)N1CCN(C(=O)COc2ccc(Br)cc2Cl)CC1,/,i
CCc1nnc(NC(=O)CCN2C(=O)CCC2=O)s1,/,i
C=CCc1c(C)nn(CC(=O)O)c1-c1ccccc1,>57,i
O=C(c1ccccc1F)N1CCN(Cc2cccc(Cl)c2)CC1,>57,i
CC(C)CNC(=O)c1ccccc1NC(=O)c1ccc(CN2CCOCC2)cc1,>57,i
CCOc1cc(C2C(C(=O)OC)=C(C)N=C3SCCC(=O)N32)ccc1OC(C)=O (configuration not stated),>57,i
CC(=O)Nc1cccc(C)c1,/,i
CCCC(=O)Nc1c2c(nn1-c1ccc(C)cc1C)CSC2,>57,i
N#CC1=C(N)N(c2ccccc2)C(c2ccco2)C1(C#N)C#N (configuration not stated),>57,i
